Source: PubChem
hNpr1 antagonist: blocks ANP-stimulated signaling of human Npr1 receptor; hit rate 1.6% among 76,000; Potency, µM (highest dose often 46.3 µM), for the others: top-dose activity change, negative = inhibition, usual class: inhibitors; AID 1347048; HEK293 hNpr1 GloSensor cGMP, ANP-stimulated luminescence; active = well fitted inhibition curve with a large enough effect; inconclusive = small, poorly fitted or top-dose-only effect; inactive = no such curve, though single readings can be large or run the other way;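 note: nearly all actives have a fitted effect of over 60% in size; nearly all hits also lower the signal before the agonist is added; a reference antagonist and vehicle were the controls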
Target sequence (P16066 whole entry, looked up): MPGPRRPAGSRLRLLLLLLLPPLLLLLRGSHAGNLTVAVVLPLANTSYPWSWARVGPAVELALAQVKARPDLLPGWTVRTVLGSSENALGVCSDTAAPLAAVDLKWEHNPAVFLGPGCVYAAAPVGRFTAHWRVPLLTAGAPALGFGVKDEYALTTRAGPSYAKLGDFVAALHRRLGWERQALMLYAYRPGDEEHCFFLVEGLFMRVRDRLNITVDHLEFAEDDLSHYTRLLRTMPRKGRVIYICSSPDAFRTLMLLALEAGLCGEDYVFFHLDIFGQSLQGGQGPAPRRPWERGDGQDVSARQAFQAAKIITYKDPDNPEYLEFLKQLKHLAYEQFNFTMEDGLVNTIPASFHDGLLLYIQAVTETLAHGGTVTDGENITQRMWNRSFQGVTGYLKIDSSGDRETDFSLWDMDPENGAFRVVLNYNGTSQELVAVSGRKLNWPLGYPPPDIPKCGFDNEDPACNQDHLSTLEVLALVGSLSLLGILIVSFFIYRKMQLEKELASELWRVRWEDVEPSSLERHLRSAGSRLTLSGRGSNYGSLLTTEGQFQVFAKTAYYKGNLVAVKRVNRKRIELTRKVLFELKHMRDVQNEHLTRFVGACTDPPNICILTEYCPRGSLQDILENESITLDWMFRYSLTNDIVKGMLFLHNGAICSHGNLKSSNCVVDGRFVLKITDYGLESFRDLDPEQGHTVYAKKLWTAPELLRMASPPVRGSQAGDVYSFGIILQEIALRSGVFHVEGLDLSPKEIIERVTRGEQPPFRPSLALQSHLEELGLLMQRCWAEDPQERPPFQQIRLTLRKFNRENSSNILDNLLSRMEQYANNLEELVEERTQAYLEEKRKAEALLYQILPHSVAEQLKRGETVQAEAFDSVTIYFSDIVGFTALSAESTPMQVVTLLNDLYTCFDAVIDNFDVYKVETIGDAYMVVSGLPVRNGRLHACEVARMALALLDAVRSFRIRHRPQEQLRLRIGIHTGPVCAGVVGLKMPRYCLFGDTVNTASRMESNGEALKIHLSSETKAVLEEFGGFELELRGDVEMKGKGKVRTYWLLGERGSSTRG
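Compound pre-incubated 30 min at room temperature on GloSensor-loaded HEK293 cells stably carrying hNpr1 and the pGS-40F cGMP biosensor. Stimulation uses hNppA at 0.1 nM final; luminescence is taken at baseline and 20 min post-agonist.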
The depositor's hits bear a star; ? = inconclusive; [ ] = remark or other dose. % is set by controls: 0 for no effect and ±100 for the full control effect; potency is the fitted concentration of half-maximal effect.

SMILES	hNpr1 antagonist
COc1cc(CNC(C)Cn2nc(C)cc2C)ccc1OCCN1CCCC1 (centres undefined)	-2%
Cn1ccnc1CN1CC2(CCN(C(=O)C3CC3)CC2)CC1C(=O)O (centres undefined)	13%
Cc1[nH]c2c(F)cccc2c1CC(=O)NC1CC(c2cc(=O)[nH]c(N)n2)C1 (centres undefined)	4%
COc1ccc(CNC(=O)C[C@@H]2CCNC[C@@H]2Cc2cc(-c3ccc(C(C)(C)C)cc3)on2)cc1	2%
COc1ncc(-c2n[nH]c3c2CC(=O)N(CCOc2ccccc2)C3)cn1	-13%[70.6 µM]
CCc1ccc(C(=O)N2CCC(c3n[nH]c(=O)n3Cc3ccc(OC)cc3)CC2)cc1	-22%
COc1ccc(CCNC(=O)C2CC(=O)N(c3n[nH]c4cccc(F)c34)C2)cc1OC (centres undefined)	-5%
O=C(COc1ccc(F)cc1)N1CCC2(CC1)NC(=O)N(c1ccccc1Cl)N2	3%
CC(C)CCN(C)C1CCCc2ccccc21 (centres undefined)	9%[70.6 µM]
CCn1ccc2sc(C)c(C(=O)NCc3ccc(F)cc3Cl)c2c1=O	-2%
CC1CCC2(CC1)OCC(C(=O)N1CCOCC1)N2C(=O)c1ccccc1F (centres undefined)	3%
COc1ccc(NC(=O)CN2C(=O)NC(c3ccccc3Cl)C3=C2COC3=O)cc1 (centres undefined)	5%
CC(C)c1nc2c(c(-c3ccc(O)cc3)n1)CN(Cc1cccc3ccccc13)CC2	-19%
CCc1ccc(CN(C)C(=O)c2ccc3oc(-c4cccc(F)c4)nc3c2)nc1	-5%
CN(C)c1ccc(C(=O)NC2CCN(c3cc(-c4ccc(Cl)cc4)[nH]n3)CC2)cc1	-3%
Cc1cc(F)ccc1-c1[nH]nc2ncc(-c3ccnn3C)nc12	-12%[70.6 µM]
Cc1ccc(C(=O)N2CC[C@H](c3n[nH]c(C)n3)[C@H](NC(=O)C3CC3)C2)cc1	4%
CCc1noc(-c2ccn3c(CNC(=O)Cc4ccc(Cl)cc4)nnc3c2)n1	5%
Cc1cccc(CC(=O)N2CCc3c(nc4cc[nH]n4c3=O)C2)c1	2%
CC1=NS(=O)(=O)N(Cc2ccccc2)C=C1C(=O)OCc1nc(-c2ccc(Cl)cc2)no1	-13%
O=C(Nc1ccc([C@H]2OCC(=O)N(C3CCOCC3)[C@@H]2CO)cc1)C1CCC1	-4%[70.6 µM]
Cc1ccsc1CN1CCC2(CC1)CN(c1ccncn1)CC2CO (centres undefined)	0%
Cn1nccc1C(O)c1cc2n(n1)CCCN(c1nc3ccccc3s1)C2 (centres undefined)	1%
COC(=O)[C@@H]1Cc2ncn(C)c2CN1S(=O)(=O)c1ccc2ccccc2c1	0%[70.6 µM]
CCCCSc1ncc(CN2CC[C@@]3(O)CCN(C(C)=O)C[C@H]3C2)cn1	3%

3 entries out of the list above, sorted by the number in hNpr1 antagonist, rising:
canonical_smiles | hNpr1 antagonist
COc1ccc(CCNC(=O)C2CC(=O)N(c3n[nH]c4cccc(F)c34)C2)cc1OC (centres undefined) | -5%
CCCCSc1ncc(CN2CC[C@@]3(O)CCN(C(C)=O)C[C@H]3C2)cn1 | 3%
Cc1[nH]c2c(F)cccc2c1CC(=O)NC1CC(c2cc(=O)[nH]c(N)n2)C1 (centres undefined) | 4%

Further results:
SMILES	hNpr1 antagonist
O=C(NC1CCCCC1)N[C@H]1[C@H](O)[C@@H](N2CCC(Cc3ccccc3)CC2)[C@@H]2OC[C@H]1O2	3%
CCCOCCNC(=O)c1c(C)noc1-c1cccc(F)c1	0%
c1ccc2sc(N3CCN(Cc4cc5n(n4)CCCNC5)CC3)nc2c1	0%
NC1CCC(n2cc(C(=O)NCc3ccccc3-n3cccn3)nn2)CC1 (centres undefined)	5%
Cc1cnc(C(=O)N2C[C@@H](Oc3cccnc3)C[C@H]2C(=O)NC2CC2)cn1	5%
CCCN1CCN(c2ccc(C(=O)N(C)Cc3ccc4ccccc4n3)cn2)CC1	2%
CCCN1CCC2(CCN(C(=O)c3ccccc3C)CC2)Oc2ccccc21	26%
CC1CCN(C(=O)c2ccc(-c3ccc(N4CCSCC4)nc3)cc2)CC1	?
CC(=O)NC1(C)CCN(Cc2cnc(-c3ccc4c(ccn4C)c3)s2)CC1	-7%[70.6 µM]
CC(=O)NC1(C)CCCN(Cc2cccc(Nc3ccncc3)c2)C1 (centres undefined)	-7%[70.6 µM]
CC(C)CC(C)NC(=O)c1ccc(CN2C(=O)NC3(CCS(=O)(=O)CC3)C2=O)cc1 (centres undefined)	1%
O=C(Nc1cccc(-c2nnc3n2CCCC3)c1)c1ccoc1	-1%
Nc1cccn2nc(-c3ccccc3)nc12	-15%
COc1ccc(C(=O)N2CC[C@@H](CC(=O)O)[C@@H](CCN3CCN(c4ccccn4)CC3)C2)cc1	7%
Cc1ccc([C@H]2C[C@@H](O)[C@@H](O)[C@@H]2N2CCCCC2)cc1	-9%[70.6 µM]
CCS(=O)(=O)Nc1ccc(C2(C(=O)NCC(C)C)CCCCC2)cc1	-16%
Cn1cnc(S(=O)(=O)N2CCCC(c3[nH]ccc3C(N)=O)C2)c1 (centres undefined)	3%
COc1ccc(CN2CCc3nc(C)nc(-c4ccc(OC)cc4)c3CC2)cc1	0%
COCCOCc1nc(C2CCN(C(=O)NC3CCCCC3)CC2)no1	0%
CN(C)c1nccnc1OC1CCN(C(=O)c2ccccn2)C1 (centres undefined)	-1%
CCOC(=O)c1sc(NC(=O)C2CC(=O)N(c3n[nH]c4ccccc34)C2)nc1C (centres undefined)	-2%
CCOc1ccc(NC(=O)CCC2CCN(c3cc(NC4CC4)ncn3)CC2)cc1	?
COc1ccc2c(c1)CCc1c-2n[nH]c1C(=O)N1CCc2nc3cc(-c4ccccc4)[nH]n3c(=O)c2C1	-4%
Fc1ccccc1CCC1CCCN(c2nnnn2-c2ccccc2)C1 (centres undefined)	0%
O=C(c1cccc(Oc2ccccc2)c1)N1CC[C@@]2(O)CCNC[C@H]2C1	2%

Further results
SMILES	hNpr1 antagonist
CC(C)CCN(C)Cc1ccc(-c2ccccc2)cc1	0%[70.6 µM]
O=C(c1ccn[nH]1)N1CCC2(CC1)CC(N1CCN(c3ccccn3)CC1)CCO2 (centres undefined)	0%
Cc1cc(C)cc(Nc2nc(C)cc(=O)n2CC(=O)NC(C)CCc2ccccc2)c1 (centres undefined)	-4%
O=C1CN(C(=O)CCC(=O)N2CCc3nc4cc(-c5ccccc5)[nH]n4c(=O)c3C2)c2ccccc2N1	-5%
CC(=O)c1cccc(NC(=O)O[C@@H]2CO[C@H]3[C@@H]2OC[C@@H]3NC(=S)Nc2cccc3ccccc23)c1	8.9µM*
CSc1ccc(C(=O)N2CCN(Cc3ccccc3)CC(O)C2)cc1 (centres undefined)	0%
Cc1nc(-c2c3n(c(=O)n(CC#N)c2=O)CCCCC3)no1	2%
O=C(CCCc1ccccc1)N1CCCC1c1nc(C2CCOCC2)no1 (centres undefined)	-6%
O=C1CCN(C(=O)C2CCN(Cc3c[nH]c4ccccc34)CC2)CCCCCCN1	-1%
COC(=O)[C@@H](Cc1cccnc1)NC(=O)[C@H]1CN(C(=O)Nc2ccccc2)CCN1C(C)=O	-1%
O=C1CO[C@H]2CCN(CCCc3ccccc3)CC[C@@H]2N1Cc1ccccc1	-23%[70.6 µM]
Cc1cc(C(=O)N2CC(F)(F)C[C@H]2c2nnc(C3CC3)o2)c(C)o1	3%
Cn1nc(C2CCN(C(=O)Nc3ccc(Cl)cc3)CC2)[nH]c1=O	0%[70.6 µM]
Cc1cc(Br)ccc1NC(=O)C[C@H]1NC(=O)c2ccccc2NC1=O	-8%
Cc1ccccc1CCC1CCCN(CC(=O)N2CCOCC2)C1 (centres undefined)	7%
CCCNC(=O)C1c2ccccc2C(=O)N(CCOC)C12CCCCC2 (centres undefined)	4%
CCCCC(=O)NC1CCN(c2cnn(C)c(=O)c2)CC1	4%
O=C(N[C@H]1CO[C@H]2[C@@H]1OC[C@@H]2n1nnnc1Oc1ccc(-n2ccnc2)cc1)c1ccccc1	-17%
COc1ccc(-c2nc3c(c(-c4ccccc4)n2)CN(C(=O)c2ccccc2)CC3)cc1	13%
CCOc1cc(=O)n2c(c1C(=O)Nc1cccc(C)c1C)CCCC2	-7%
CN(C)CCNCc1ccc(-c2ccccc2)o1	5%
Fc1ccc(C2Cn3nnc(-c4nc(-c5ccccn5)no4)c3CO2)cc1 (centres undefined)	0%
O=C1COc2ccc(-c3ccncc3)nc2CN1Cc1ccc(F)cc1	-21%[70.6 µM]
COC1CCN(C(=O)c2cnc3c(c2)N(C(=O)CCc2ccccc2)CCC3)CC1	-5%[70.6 µM]
c1ccc2oc(-c3ccnc4nc(C5CCC5)nn34)cc2c1	-4%

Some of these compounds in order of length of the SMILES, largest number first:
SMILES	hNpr1 antagonist
CC(=O)c1cccc(NC(=O)O[C@@H]2CO[C@H]3[C@@H]2OC[C@@H]3NC(=S)Nc2cccc3ccccc23)c1	8.9µM*
COc1ccc(-c2nc3c(c(-c4ccccc4)n2)CN(C(=O)c2ccccc2)CC3)cc1	13%
O=C1CO[C@H]2CCN(CCCc3ccccc3)CC[C@@H]2N1Cc1ccccc1	-23%[70.6 µM]
Fc1ccc(C2Cn3nnc(-c4nc(-c5ccccn5)no4)c3CO2)cc1 (centres undefined)	0%
Cn1nc(C2CCN(C(=O)Nc3ccc(Cl)cc3)CC2)[nH]c1=O	0%[70.6 µM]
CSc1ccc(C(=O)N2CCN(Cc3ccccc3)CC(O)C2)cc1 (centres undefined)	0%
CC(C)CCN(C)Cc1ccc(-c2ccccc2)cc1	0%[70.6 µM]

(further entries)
SMILES	hNpr1 antagonist
CCC(=O)N1CCc2c(C(=O)NCC(C)C)cccc21	0%
O=C(NCCN1CCOCC1)c1ccc(-c2ccc(N3CCSCC3)nc2)cc1	-14%
CCC1(N2CCN(C(=O)CCc3c[nH]c4ccccc34)CC2)CCN(C(=O)NC)C1 (centres undefined)	-14%
Cc1ccccc1CN1CCN2C(=O)N(Cc3cccnc3)C[C@H]2C1	?
Cc1csc(NC(=O)[C@@H]2CCC[C@@H](NCC3CC3)CN(C)C(=O)C2)n1	-11%[70.6 µM]
CC(O)CN1CC2(CCC1=O)CCN(Cc1cncn1C)CC2 (centres undefined)	-1%
COc1ccc(CN2CCC(O)(c3csc(CN4CCN(C)CC4)n3)CC2)cc1	1%[70.6 µM]
Cc1ccc(C(=O)N2CCN(C(=O)c3nnn4c3COC(c3ccccc3)C4)CC2)s1 (centres undefined)	-22%
CCCS(=O)(=O)N1CCC2(CC1)C(OC)CN2c1cccc(F)c1 (centres undefined)	2%
CC(C)CN(CC1CN(C(=O)c2ccccc2Cl)CCO1)C(=O)c1cccc(F)c1 (centres undefined)	-12%
CCCCN1CCN(C(=O)C2CCC(=O)N(Cc3cccc(F)c3)C2)CC1=O (centres undefined)	6%
Cc1cccc(OC[C@H]2C[C@@H](NCc3cccc4c3OCO4)[C@H](O)[C@@H]2O)n1	-4%
CCc1nc(NC2CCCC2)ncc1C(=O)O	-3%
Cc1noc(C)c1CC(=O)N1CCCn2cc(-c3ccccc3)nc21	-6%
CC[C@@]1(O)CCN(C(=O)c2ccc(OC)c(N3CCOCC3)c2)C[C@H]1O	-2%
Cc1nc(C2CCCCN2C(=O)Cc2ccccc2)n[nH]1 (centres undefined)	-1%
O=C(O)c1cnc(-c2ccc(F)cc2)nc1-c1ccncc1	-10%
O=C(O)C[C@@H]1CCN(C(=O)c2ccc(F)cc2)C[C@@H]1CCN1CCOCC1	2%[70.6 µM]
Cc1nn(CC(=O)N[C@@H]2CCOC[C@H]2OCCO)c(=O)c2ccccc12	7%
O=C(NC1CCc2nnc(C3CC3)n2CC1)c1ccco1 (centres undefined)	1%
CC(=O)c1ccc(NC(=O)O[C@@H]2CO[C@H]3[C@@H]2OC[C@@H]3n2nnnc2-c2ccc(CN3CCOCC3)cc2)cc1	1%
Cc1[nH]nc(CCC(=O)N2CCC3(CCCN(CC(C)(C)C)C3)C2)c1C (centres undefined)	3%
CC(=O)c1cccc(NC(=O)Cn2c(=O)n(-c3cccc(C)c3)c(=O)c3c2cc(C)n3C)c1	0%
Cc1ccc(NC(=O)C2CCN(C(=O)c3ncn4c3COC(c3ccccc3)C4)CC2)cc1 (centres undefined)	-23%
CCc1nc2c(c(-c3ccc(Cl)cc3)n1)CCN([S+](=O)([O-])c1cccc(OC)c1)CC2	0%

Going on with the list.
SMILES	hNpr1 antagonist
O=C(NCc1nnc2ccc(-c3ccccc3)nn12)c1ccccc1OC(F)(F)F	5%
O=C(CCCc1ccccc1)N1CCC[C@H]1c1nc(-c2ccccc2Cl)no1	-4%
O=C1OCC2=C1C(c1ccccc1)NC(=O)N2CC(=O)N1CCOCC1 (centres undefined)	-1%
O=C(c1cc(Br)cn2ccnc12)N1CCC(N2CCNC2=O)CC1	0%
O[C@@H]1C[C@@H](c2nc(-c3ccc4c(c3)OCO4)no2)N(CC2CC2)C1	-13%[70.6 µM]
O=C(NCc1cccnc1)c1nc(-c2ccc(F)cc2)c2ccccn12	-3%
COc1ccc(NC(=O)N2C[C@@H](F)C[C@H]2C(=O)N2CCCCC2)c(C)c1	3%
COC[C@@H]1CN(Cc2cccc(C#N)c2)C[C@H]1c1ccccn1	1%
CCCn1ncc(C(=O)N2C[C@H](CO)C[C@H](CN3CCCC3)C2)c1C	0%
CN(C)C(=O)c1ccc(CC2CC(=O)N(c3ccccc3)C2)nc1 (centres undefined)	0%
Cc1nn(-c2ccc(C(F)(F)F)cc2)c(C)c1[C@@H]1C=C[C@@H](NC(=O)c2ccc(N(C)C)cc2)C1	-14%
CN(C)c1ccc(-c2noc([C@@H]3CCCN3Cc3nc4ccccc4n3C)n2)cn1	2%[70.6 µM]
COc1ccc(Cl)cc1-c1ccc2c(c1)C(=O)N1CCN(C(=O)c3cnccn3)C[C@H]1C(=O)N2	4%

A portion of the library; the hit share may differ from the screen's.
